Assay outcomes as filed in PubChem.
rRNA inh HTS: selective bacterial rRNA inhibition in E. coli | E. coli WT GFP vs humanized-ribosome RFP mutants, fluorescence, 24 h; hits give low values; DMSO median 0, no signal -100 | GFP signal change (wild-type ribosome), % (concentration not given with the values) | actives 1.6% (n = 350,000) | AID 720706;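 active = significant combined selectivity score with lowered wild-type GFP, culture density cut under 30%, mutant RFP and density less affected; inactive = any of these conditions unmet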; also: one replicate is shown; some compounds called inactive have numbers as strong as hits
MLL AF4-AF9 inh: MLL-AF4/AF9 protein interaction inhibition; AlphaScreen, biotin-AF4 peptide binding to FLAG-AF9; inhibition, % at 10 µM; actives 0.47% (n = 350,000);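 active = every replicate reaching a set inhibition limit, whatever the replicate mean, cut at about 25% in these data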;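 also: 0% = plate neutral control median and 100% = total signal loss; the record names both 10 and 1 µM as test concentration; the first replicate is given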
Target sequence (P42568 whole entry, looked up): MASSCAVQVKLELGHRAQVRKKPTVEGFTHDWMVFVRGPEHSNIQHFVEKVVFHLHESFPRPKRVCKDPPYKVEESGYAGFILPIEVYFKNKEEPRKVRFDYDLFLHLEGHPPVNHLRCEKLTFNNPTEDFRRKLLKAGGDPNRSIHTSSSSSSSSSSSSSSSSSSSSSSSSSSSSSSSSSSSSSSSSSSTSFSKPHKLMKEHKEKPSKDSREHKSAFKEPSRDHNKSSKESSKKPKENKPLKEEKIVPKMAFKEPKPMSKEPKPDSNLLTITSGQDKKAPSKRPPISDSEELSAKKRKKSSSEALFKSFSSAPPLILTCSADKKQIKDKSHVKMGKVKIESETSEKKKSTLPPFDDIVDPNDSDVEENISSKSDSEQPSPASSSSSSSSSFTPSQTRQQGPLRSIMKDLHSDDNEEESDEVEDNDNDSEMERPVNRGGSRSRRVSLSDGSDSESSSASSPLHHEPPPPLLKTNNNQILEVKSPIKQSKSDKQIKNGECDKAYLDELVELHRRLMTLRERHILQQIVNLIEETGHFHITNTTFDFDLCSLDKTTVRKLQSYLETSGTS
rRNA inh HTS OD600: also measured in rRNA inh HTS; calls as there; OD600 change, %; measured here: OD600 growth;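 optical density of the mix in the first replicate; 0 = DMSO median and -100 = no signal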
rRNA inh HTS RFP: also measured in rRNA inh HTS; calls as there; RFP signal change, %; measured here: RFP humanized mutant strains;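 first replicate; 0 = DMSO median and -100 = no signal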
* marks the source's active call; other numbers are inactive results. This is a subset, so the mix of outcomes need not match the whole.

SMILES	rRNA inh HTS	rRNA inh HTS OD600	rRNA inh HTS RFP	MLL AF4-AF9 inh
CC(C)NC(=O)Nc1ccc2c(c1)C(=O)N([C@H](C)CO)C[C@@H](C)[C@@H](CN(C)S(=O)(=O)c1ccc(Cl)cc1)O2	0.7	-1.5	-1.2	0.3
Cc1cccc(C)c1NC(=O)C1C(c2ccc3c(c2)OCO3)=Nc2ccccc2N1C(=O)c1ccccn1 (configuration not stated)	4.5	1.9	11.1	5.6
CCN1CCCC1CNC(=O)Cn1cc(C)c(=O)[nH]c1=O (configuration not stated)	10.2	11.5	13.6	-1.2
CC(C)(C)c1ccc(S(=O)(=O)NC(=O)C2(C)CCN2C(=O)Cc2ccccc2Cl)cc1 (configuration not stated)	-3.5	2.3	-3.3	-12.6
COc1ccc2c3c([nH]c2c1)[C@@H](CO)N(C(=O)C1CCCCC1)CC31CCN(C(=O)c2ccncc2)CC1	-1.8	-3.8	1.4	-3.4
CN(C)CC#Cc1ccc([C@H]2[C@@H](CO)N3CCCCN(C(=O)c4ccc5c(c4)OCO5)C[C@H]23)cc1	5.7	9.9	2.5	5.5
COc1ccccc1NC(=O)N1CCCCN2[C@@H](CO)[C@H](c3ccc(-c4cccc(F)c4)cc3)[C@@H]2C1	-57.6	-69.7	-1.8	3.9
CO[C@@H]1CN(C)C(=O)c2cc(NC(=O)C3CCC3)ccc2OC[C@@H](C)N(Cc2ccc(F)cc2)C[C@H]1C	-3.5	3.6	2.1	1.8
Cc1ccc2ccc(C(Nc3ccccc3)c3ccc(F)cc3)c(O)c2n1 (configuration not stated)	-33.5	-50.1	-15.4	11.5
C/C=C/c1cnc2c(c1)C(=O)N([C@@H](C)CO)C[C@@H](C)[C@H](CN(C)C(=O)Nc1ccc(OC)cc1)O2	0.2	0.9	1.2	-3.2
OC(c1cccc(Cl)c1)c1ncc(-c2ccccc2Cl)[nH]1 (configuration not stated)	-37.2	-71.5	-4.9	5.6
CC1(C(=O)NS(=O)(=O)c2ccccc2)CCN1C(=O)CC1CC1 (configuration not stated)	16.6	14.9	2.0	-3.5
Cc1c(NC(=O)c2nn(C(C)C)c(=O)c3ccccc23)c(=O)n(-c2ccccc2)n1C	1.9	2.1	-0.9	-1.4
COCCCNC(=O)c1csc([C@@H]2O[C@H](CO)[C@H](O)[C@H](O)[C@H]2O)n1	7.9	5.6	-0.5	-0.9
COc1cccc(-c2nc3nc(C)cc(C)n3c2Nc2c(C)cccc2C)c1	-2.3	-1.8	11.9	5.3
CCCNC(=O)N(C)C[C@H]1Oc2cc(C3=CCCCC3)ccc2S(=O)(=O)N([C@H](C)CO)C[C@H]1C	-3.7	-22.1	0.8	3.3
O=S1(=O)CC(N2CCN(CC3CC3)CC2)CN1Cc1cn(Cc2ccccc2C(F)(F)F)nn1 (configuration not stated)	6.7	14.1	-3.2	1.6
CC1(C(=O)NS(=O)(=O)c2ccccc2)CCN1C(=O)c1cccc2ccccc12 (configuration not stated)	3.2	14.2	-3.3	-1.7
O=C(C1CCCCC1)N1CC(=O)N2[C@H](CO)[C@@H](c3ccc(-c4ccccc4F)cc3)[C@@H]2C1	-52.3	-76.1	-15.1	-1.5
N#C[C@H]1[C@@H](c2ccccc2C2=CCCC2)[C@@H](CO)N1C(=O)C1CCC1	-2.7	-7.0	-4.6	-1.0
CCC1NC(=O)c2cccnc2-n2c1nc1cc(OC)c(OC)cc1c2=O (configuration not stated)	-3.9	6.5	-4.1	-4.2
CC=Cc1ccc2n(c1=O)C[C@@H]1[C@@H](CO)[C@H](C(=O)Nc3ccc(-c4ccccc4)cc3)[C@H]2N1C (mixture of isomers)	0.3	-16.9	13.3	8.3
Cc1ccc(S(=O)(=O)N[C@H]2CC[C@H](CCNC(=O)C3CCCCC3)O[C@@H]2CO)cc1	-1.0	-0.1	-2.3	0.2
COCC(=O)N(C)C[C@H]1Oc2cc(-c3ccc(F)cc3)ccc2S(=O)(=O)N([C@@H](C)CO)C[C@@H]1C	-1.2	-1.5	1.5	1.7
Cc1ccc(S(=O)(=O)Nc2ccc3c(c2)CC(=O)N([C@@H](C)CO)C[C@@H](C)[C@H](CN(C)C)O3)cc1	5.7	6.3	1.0	-1.3
COc1ccc2c3c([nH]c2c1)[C@H](CO)N(C(C)=O)CC31CN(C(=O)Nc2c(C)noc2C)C1	4.8	13.8	-1.2	-6.2
COc1ccc(-c2cccc3c2C2CC3CCN2C(=O)OCc2ccccc2)cc1 (configuration not stated)	8.6	6.9	-1.0	-2.2
C[C@@H]1CCCCO[C@@H](CN(C)C(=O)NC2CCCCC2)[C@@H](C)CN([C@H](C)CO)C(=O)c2cc(NC(=O)Nc3ccc(C(F)(F)F)cc3)ccc2O1	1.3	2.9	-1.8	-1.0
Cc1noc(C)c1S(=O)(=O)N(C)C[C@@H]1Oc2ccc(NS(=O)(=O)c3ccc(Cl)cc3)cc2CC(=O)N([C@@H](C)CO)C[C@H]1C	-2.8	-11.3	-0.1	9.9
O=C1CN(Cc2ccc(F)cc2)C[C@H]2[C@@H](c3ccc(-c4ccccc4)cc3)[C@@H](CO)N12	-11.9	-46.2	18.0	2.2
COc1ccc(S(=O)(=O)Nc2ccc3c(c2)C(=O)N([C@H](C)CO)C[C@H](C)[C@H](CN(C)Cc2ccncc2)OCCCC[C@H](C)O3)cc1	-5.7	-14.9	0.1	2.0
COCC(=O)Nc1ccc2c(c1)[C@H]1C[C@H](CC(=O)N3CCc4ccccc4C3)O[C@H](CO)[C@H]1O2	-0.3	-8.9	1.1	0.4
CO[C@H]1CN(C)C(=O)c2cc(NS(=O)(=O)CC(F)(F)F)ccc2OC[C@H](C)N(CC2CCCCC2)C[C@@H]1C	-6.3	-8.0	-0.8	0.1
Cc1ccc(NC(=O)Nc2ccc3c(c2)C(=O)N(C)[C@@H]2CC[C@@H](CC(=O)O)O[C@@H]2CO3)cc1	3.6	8.2	1.9	-1.9
C[C@@H]1CN([C@@H](C)CO)C(=O)Cc2cc(NC(=O)Cc3ccccc3)ccc2O[C@@H]1CN(C)CC1CC1	2.2	14.6	-0.6	-0.3
O=C(C[C@@H]1C=C[C@H](NC(=O)CC2CC2)[C@@H](CO)O1)NCc1ccccc1	1.9	7.7	1.5	-0.1
COc1ccc(CN(C)C[C@H]2Oc3ccc(NC(=O)Nc4cccc5ccccc45)cc3CC(=O)N([C@@H](C)CO)C[C@@H]2C)cc1	-2.7	0.5	4.0	3.2
C[C@@H]1CN([C@H](C)CO)C(=O)c2cc(-c3cncnc3)cnc2O[C@@H]1CN(C)Cc1cncnc1	4.5	18.0	1.3	-3.2
CCCC#Cc1cnc2c(c1)C(=O)N([C@@H](C)CO)C[C@@H](C)[C@H](CN(C)C(=O)c1cccnc1)O2	1.7	-5.9	-0.1	-1.5
CN(C)C(=O)C[C@@H]1C[C@@H]2c3cc(NC(=O)Nc4ccccc4F)ccc3O[C@@H]2[C@H](CO)O1	-1.9	-10.6	-3.6	-1.4
CC(CCC(=O)O)C1CCC2C3CC(O)C4CC(O)CC[C@]4(C)C3CCC12C (some centres not stated)	-21.2	-11.1	-12.6	-2.8
COc1ccccc1CNC(=O)C[C@@H]1CC[C@H](NC(=O)CC2CC2)[C@H](CO)O1	-1.3	6.5	1.2	-0.7
CCc1cc2c(nc1CC)CCCN2Cc1ccccc1C(F)(F)F	4.8	12.7	0.8	-2.4
C[C@@H]1CN([C@H](C)CO)C(=O)c2c(c3ccccc3n2C)-c2ccccc2CO[C@H]1CN(C)Cc1ccc(F)cc1	0.0	2.8	1.3	-2.7
COc1cccc(C#Cc2ccc([C@@H]3[C@@H](CO)N4C(=O)CN(C(=O)c5ccncc5)C[C@@H]34)cc2)c1	2.3	1.4	10.9	-1.6
C[C@@H]1CN([C@@H](C)CO)C(=O)c2cc(NC(=O)Nc3ccc(F)cc3)ccc2O[C@H]1CN(C)CC1CCCCC1	3.9	5.6	0.6	3.4
C[C@H]1CN([C@@H](C)CO)C(=O)Cc2cc(NS(C)(=O)=O)ccc2O[C@@H]1CN(C)S(=O)(=O)c1ccc(Cl)cc1	4.0	1.2	-0.2	-0.2
CCCC#Cc1cnc2c(c1)C(=O)N([C@@H](C)CO)C[C@H](C)[C@H](CN(C)C(=O)Cc1ccncc1)O2	2.8	5.6	0.2	-1.4

Full records, quoted from the list. Order of values: rRNA inh HTS, rRNA inh HTS OD600, rRNA inh HTS RFP, MLL AF4-AF9 inh
CC(C)(C)c1ccc(S(=O)(=O)NC(=O)C2(C)CCN2C(=O)Cc2ccccc2Cl)cc1 (configuration not stated) is listed with -3.5, 2.3, -3.3, -12.6
Cc1ccc(NC(=O)Nc2ccc3c(c2)C(=O)N(C)[C@@H]2CC[C@@H](CC(=O)O)O[C@@H]2CO3)cc1 is listed with 3.6, 8.2, 1.9, -1.9
CC(C)NC(=O)Nc1ccc2c(c1)C(=O)N([C@H](C)CO)C[C@@H](C)[C@@H](CN(C)S(=O)(=O)c1ccc(Cl)cc1)O2 is listed with 0.7, -1.5, -1.2, 0.3

The list goes on.
SMILES	rRNA inh HTS	rRNA inh HTS OD600	rRNA inh HTS RFP	MLL AF4-AF9 inh
CCCCCCCCCC1NC(C(=O)O)Cc2c1[nH]c1ccccc21 (configuration not stated)	-52.1	-76.9	-12.0	-0.2
COc1ccccc1-c1ccc([C@@H]2[C@@H](CO)N(C(=O)C3CCOCC3)[C@H]2C#N)cc1	-0.2	11.7	-1.0	-1.3
O=C(C[C@@H]1C=C[C@H](NC(=O)C2CC2)[C@H](CO)O1)NCc1ccncc1	2.5	3.2	-0.7	-0.4
COCC#Cc1ccc([C@@H]2[C@@H](CO)N3C(=O)CN(C(=O)CN4CCOCC4)C[C@H]23)cc1	7.7	11.1	-2.7	-3.3
COc1ccc(S(=O)(=O)Nc2ccc3c(c2)C(=O)N([C@@H](C)CO)C[C@@H](C)[C@@H](CN(C)C(=O)Cc2ccccc2)OCCCC[C@H](C)O3)cc1	2.1	-13.5	-4.8	-0.5
COCC#Cc1ccc2c(c1)O[C@H](CN(C)C(=O)CC1CC1)[C@H](C)CN([C@H](C)CO)S2(=O)=O	1.5	2.4	2.1	-3.7
CNC[C@@H]1OCCCC[C@H](C)Oc2ccc(NC(=O)CCC(F)(F)F)cc2C(=O)N([C@@H](C)CO)C[C@@H]1C	4.8	-1.1	1.1	-8.0
C[C@@H]1CN([C@@H](C)CO)S(=O)(=O)c2ccc(C#CCN(C)C)cc2O[C@@H]1CN(C)Cc1ccncc1	-1.3	4.4	0.3	0.9
C[C@H](CO)N1C[C@H](C)[C@H](CN(C)Cc2ccc(C(F)(F)F)cc2)Oc2c(NC(=O)NC3CCCCC3)cccc2C1=O	-6.8	-15.5	-0.1	2.2
COC(=O)[C@@]12C[C@@H](CC(=O)N3CCC(c4ccccc4)CC3)C(=O)N(Cc3ccccc3)C1=CCC(C)(C)C2	3.9	3.9	-3.5	1.0
C[C@@H]1CCCCO[C@H](CN(C)Cc2ccncc2)[C@H](C)CN([C@H](C)CO)C(=O)c2cc(NC(=O)Cc3ccccc3)ccc2O1	-1.8	-3.4	-0.1	-2.1
CCCc1c(-c2ccc(F)cc2)ncn1CCc1ccccc1OC	-61.2	-79.1	-19.9	9.7

Molecules listed so far that have a cyano group (two):
SMILES	rRNA inh HTS	rRNA inh HTS OD600	rRNA inh HTS RFP	MLL AF4-AF9 inh
N#C[C@H]1[C@@H](c2ccccc2C2=CCCC2)[C@@H](CO)N1C(=O)C1CCC1	-2.7	-7.0	-4.6	-1.0
COc1ccccc1-c1ccc([C@@H]2[C@@H](CO)N(C(=O)C3CCOCC3)[C@H]2C#N)cc1	-0.2	11.7	-1.0	-1.3

Next section
SMILES	rRNA inh HTS	rRNA inh HTS OD600	rRNA inh HTS RFP	MLL AF4-AF9 inh
COc1ccccc1-c1ccc2c(c1)[C@H]1[C@H](CCN1S(=O)(=O)c1ccccc1F)[C@@H](CO)N2	4.1	4.7	7.4	-1.7
O=C1C[C@H]2CCCCC(=O)N3CC[C@@H](C1)[C@@H]23	19.8	2.8	-3.1	5.7
C[C@H](CO)N1C[C@H](C)[C@H](CN(C)C(=O)Nc2ccc(F)cc2)Oc2c(cccc2N(C)C)C1=O	0.4	-1.3	-1.6	-4.0
COc1cccc(CNC(=O)C[C@@H]2C=C[C@H](NC(=O)C3CCOCC3)[C@@H](CO)O2)c1	0.1	4.0	1.2	-0.1
C[C@@H]1CN([C@H](C)CO)C(=O)c2cc(-c3cccc(C(=O)N(C)C)c3)cnc2O[C@@H]1CN(C)S(=O)(=O)c1cccc(F)c1	2.1	-2.2	-1.5	-5.8
CC(=O)Nc1ccc(NC(=O)C2(C)Cc3c(-c4ccc5c(c4)OCO5)ccnc3O2)cc1 (configuration not stated)	-3.1	-7.9	0.5	-1.3
COc1ccccc1S(=O)(=O)N(C)C[C@H]1OCc2ccccc2-c2c(n(C)c3ccccc23)C(=O)N([C@H](C)CO)C[C@H]1C	1.9	5.1	-0.6	4.4
